Screening data as filed in PubChem BioAssay.
A1 inh = inhibitors of the anti-apoptotic protein A1, read as caspase activation; MEF A1-2A-BIM cells, Caspase-Glo 3/7 luminescence, 3 h; percent of clofoctol response, vehicle zero; caspase activation, % (no concentration beside the values); actives 0.066% (n = 330,000); AID 2462;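 active means over half of replicate activation scores above 10%, or exactly half above 10 with the replicate mean above 10; inconclusive means replicate mean below 10 yet half the replicates above 10; inactive means over half of replicates below 10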;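 further: wells of about 30 µL received 50 nL stock; many hits fall short of the cut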
Beta cell apopt = beta cell apoptosis inhibition. INS-1E cytokine-induced death, ATP luminescence, 48 h; percent of positive-control rescue, neutral wells zero. protection from apoptosis, % (no concentration beside the values). AID 435005. actives 0.8% (n = 300,000);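 active means all replicates at 75% or more, or half of them and the mean; inconclusive means half reach 75% but not the mean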;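 further: 0% = cytokine-treated negative control wells and 100% = positive control rescue; higher means more ATP so stronger rescue from cytokine killing; wells of about 40 µL received 100 nL stock; the first replicate is given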
Calb FLC = affects C. albicans growth with fluconazole; actives 0.57% (n = 300,000); C. albicans CaCi-2 (fluconazole-resistant clinical isolate) + fluconazole, Alamar Blue growth, 48 h; growth inhibition, % (test concentration not listed);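 active means most replicates above 75%; inconclusive means exactly half above 75%; inactive means most below 75%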;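 further: all wells also contain fluconazole at 8 µg/ml as a sub-toxic cotreatment; 0% = median of DMSO wells and 100% = median of geldanamycin control wells; wells of about 8 µL received 7.5 nL stock; the first replicate is given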
LANA-H2B inh = blocks KSHV LANA binding to histone H2A/H2B. Q9QR71. cell-free LANA-H2A/H2B peptide, fluorescence polarization. inhibition, % (concentration not given with the values). actives 0.6% (n = 320,000); in the data active means inhibition mostly above about 10%, no sharp cut-off; inactive means mostly below about 6.7%;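 further: stock transfer was 7.5 nL into about 10 µL; 0% = median of vehicle wells and 100% = median of positive control wells; one replicate is shown; the record names a cut of 25% in any replicate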
RanGTP-Impb inh = disruptors of Ran-importin-beta complex formation – biochemical, FRET, CFP-Ran, YFP-importin-beta, homogeneous, primary screen | inhibition, % (concentration not given with the values) | actives 1.1% (n = 300,000) | cell-free CFP-Ran/YFP-importin-beta FRET ratio;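 active means most replicates above 15%; inconclusive means exactly half above 15%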;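 further: 0% = DMSO wells and 100% = Ran loaded with GDP instead of GTP; wells of about 40 µL received 100 nL stock; the first replicate is given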
T cruzi repl = blocks replication of Trypanosoma cruzi; inhibition, % (test concentration not listed); AID 1885; actives 1.4% (n = 300,000); T. cruzi beta-gal in NIH3T3, luminescence, 90 h;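 active means mean inhibition across valid replicates above about 55%, limit read from the data; inconclusive means mean below that limit but half or more replicates reach it; inactive means mean below it, under half of replicates reach it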;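 further: signal also drops with host cell toxicity which is not excluded here; 0% = plate median of DMSO wells and 100% = zero luminescence signal; higher percent means less beta-gal luminescence so fewer parasites; stock transfer was 50 nL into about 50 µL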
Beta2AR agonist = human beta-2 adrenergic receptor agonism by FAP; P07550; Am2.2-beta2AR cells, FAP receptor internalization, flow cytometry; reference of the scale not given here; response, % (concentration not given with the values); actives 0.43% (n = 340,000); AID 504454;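 active means response above a set limit, near 3 SD of response in nonfluorescent compounds, cut at about 42% in these data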;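 further: stock transfer was 100 nL into about 11 µL; a reference agonist was the positive control; negative values mostly stem from fluorescent compounds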
Target sequence (P07550 whole entry, looked up): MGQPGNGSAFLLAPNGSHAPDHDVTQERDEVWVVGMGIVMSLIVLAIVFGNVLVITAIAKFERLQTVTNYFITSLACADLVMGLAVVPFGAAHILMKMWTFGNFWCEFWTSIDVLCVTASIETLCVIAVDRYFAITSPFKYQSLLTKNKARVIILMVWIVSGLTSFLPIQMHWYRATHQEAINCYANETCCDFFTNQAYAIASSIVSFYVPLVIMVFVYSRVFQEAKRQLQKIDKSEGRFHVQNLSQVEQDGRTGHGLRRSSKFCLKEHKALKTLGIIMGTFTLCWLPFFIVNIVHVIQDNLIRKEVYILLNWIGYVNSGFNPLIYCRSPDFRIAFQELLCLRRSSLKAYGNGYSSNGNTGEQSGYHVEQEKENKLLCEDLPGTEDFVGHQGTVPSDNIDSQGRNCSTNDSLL
UCH37 inh = inhibitors of human deubiquitinating enzyme UCH37. Q9Y5K5. purified proteasome/UCH37, Ub-AMC cleavage fluorescence. inhibition, % (test concentration not listed). actives 0.33% (n = 330,000);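 active means mean of two replicates above 20%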;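 further: 0% = compound-free wells with enzyme and 100% = wells lacking proteasome; stock transfer was 100 nL into about 20 µL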
Target sequence (Q9Y5K5 whole entry, looked up): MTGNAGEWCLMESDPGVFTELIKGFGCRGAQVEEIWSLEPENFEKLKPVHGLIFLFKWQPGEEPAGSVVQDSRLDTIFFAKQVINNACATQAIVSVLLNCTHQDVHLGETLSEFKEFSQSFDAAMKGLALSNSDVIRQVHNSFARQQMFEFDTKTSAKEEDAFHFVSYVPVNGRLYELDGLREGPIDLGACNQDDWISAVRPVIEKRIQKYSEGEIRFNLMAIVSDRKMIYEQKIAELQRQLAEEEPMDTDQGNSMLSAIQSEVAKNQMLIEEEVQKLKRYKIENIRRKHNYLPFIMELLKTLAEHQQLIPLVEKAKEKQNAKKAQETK
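Schedule: 30 min plus 25 min, room temperature / Material: human UCH37 within purified proteasomes / Technique: AMC fluorescence intensity at 355/460 nm / Buffer or medium: pH 7.4 Tris-HCl (50 mM) with ovalbumin, ATP-MgCl2, DTT / Controls: wells without proteasome as full block, compound-free enzyme plus substrate as uninhibited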
Numbers without * were called inactive; i = inactive; ? = inconclusive; . = no result given. Not a hit list; overall some 4.3% were active at least once.

canonical_smiles	A1 inh	Beta cell apopt	Calb FLC	LANA-H2B inh	RanGTP-Impb inh	T cruzi repl	Beta2AR agonist	UCH37 inh
COc1cc(OC)cc(-c2nc3nc(C)c(CCC(=O)O)c(C)n3n2)c1	1.2	-3	-3	2.2	-0.8	0	3	4.6
Clc1cccc(N=C2NN=C(c3ccc4c(c3)OCCO4)CS2)c1	0.2	84*	36	2.3	-0.3	.	7	7.7
CC(C)C(OC(=O)CCCC(=O)Nc1nccs1)C(=O)NC1CCCCC1 (stereo not given)	0.0	-4	25	-0.5	-1.2	0	1	3.7
O=S(=O)(c1ccc(-c2ccon2)s1)N1CCN(c2ccccn2)CC1	-0.3	2	-12	-2.1	0.6	-7	-9	1.8
O=C(CCS(=O)(=O)c1ccccc1)Nc1nncs1	0.4	-13	52	-10	-2.6	-8	-2	4.3
CC(=O)Nc1ccc(N2CCCC(C)C2)c([N+](=O)[O-])c1 (stereo not given)	0.8	8	0	2.5	0.1	13	-2	2.7
C[C@H](CO)N1C[C@H](C)[C@H](CN(C)C(=O)Nc2ccc(F)cc2)Oc2c(NC(=O)c3ccc(-c4nccs4)cc3)cccc2C1=O	-0.2	-1	.	5.3	.	.	-3	1.4
C[C@H](CO)N1C[C@H](C)[C@@H](CN(C)S(=O)(=O)c2cn(C)cn2)Oc2ccc(NS(=O)(=O)c3ccccc3)cc2C1=O	0.0	1	.	1.9	.	.	-7	6.3
CN(C)c1ccc(CNn2cnnc2SCc2ccc(F)cc2)cc1	0.2	-4	?	5.5	1.7	22	4	5.4
CC(=O)c1sc(C(=O)O)c(-c2ccco2)c1-c1ccco1	2.6	-9	10	1.1	-1.7	-18	-2	5.6
CCOCCn1c(=O)c2c(nc3n2CCCN3Cc2ccccc2)n(C)c1=O	-0.4	-4	2	1.7	-3.4	5	-7	0.9
COc1ccc(C(=O)Nc2ccncc2)cc1[N+](=O)[O-]	-0.4	12	1	4.1	-5.6	49	-1	3.8

Overlap with the part before: two compounds, followed by the next part.
canonical_smiles	A1 inh	Beta cell apopt	Calb FLC	LANA-H2B inh	RanGTP-Impb inh	T cruzi repl	Beta2AR agonist	UCH37 inh
CCOCCn1c(=O)c2c(nc3n2CCCN3Cc2ccccc2)n(C)c1=O	-0.4	-4	2	1.7	-3.4	5	-7	0.9
COc1ccc(C(=O)Nc2ccncc2)cc1[N+](=O)[O-]	-0.4	12	1	4.1	-5.6	49	-1	3.8
NC(=O)CSc1cn(CCNC(=O)c2cccs2)c2ccccc12	-0.9	-2	3	6.3	5.8	-14	-17	4.5
Cc1cc(C)nc(SCC(=O)N(C)CC(=O)Nc2ccccc2Br)n1	1.1	-5	-6	-1.1	-3.3	0	-3	2.0
C=C(C)CNC(=S)Nc1nc2c(cc1C(=O)OCC)CCCC2	.	.	-18	.	4.8	-6	-9	-22
C/C=C/c1ccc(OCCSc2nc(C)cc(=O)[nH]2)c(OC)c1	-1.2	8	16	1.8	1.5	3	2	2.1
O=c1c2ccccc2ncn1Cc1ccc2c(c1)OCO2	0.2	3	2	-2.6	0.8	7	-1	1.3
Cc1ccc(C)c(N2CCN(C(=O)CNS(=O)(=O)c3cccs3)CC2)c1	0.3	-3	12	-0.3	3.9	18	-3	-0.3
COc1cccc(CN(C)C(=O)CSCC(=O)Nc2cc(C)on2)c1OC	0.1	-1	4	-6.0	-1.7	-11	5	3.7
Cc1nc(C)c(-c2ccc(SCc3ccc(Cl)cc3)nn2)s1	-0.3	-5	47	0.0	1.5	-2	3	1.6
O=C1[C@H]2[C@H](C=CC[C@H]2C(=O)N2CCN(c3ccccc3)CC2)CCN1Cc1ccccc1	0.6	-4	9	-7.2	5.8	4	5	0.9
COc1ccc(OC)c(C2C3=C(CC(C)(C)CC3=O)Nc3nnnn32)c1 (stereo not given)	1.2	2	-4	-2.3	-0.2	4	2	-1.9
CCOc1ccc(C=Nc2cccc3ncccc23)cc1	-0.4	8	35	0.4	6.5	-2	0	-2.7
NCCCCCc1nnc(SCc2cccc(Cl)c2)o1	0.0	1	-7	0.1	-1.9	-4	3	4.1
COc1ccc(CNc2oc(-c3cccc4ccccc34)nc2P(=O)(OC)OC)cc1	0.6	-4	10	-5.6	0.1	27	10	i
CC1CCCCN1CCCNc1ccc(C(CC(N)=O)NC(=O)Cc2cccc3ccccc23)cc1[N+](=O)[O-] (stereo not given)	0.3	7	-5	4.9	30*	-24	-4	6.1
O=C(CCSCCC(=O)Nc1ccccc1F)Nc1ccccc1F	0.8	-2	2	3.8	4.2	-2	2	2.6
COCCn1cc(C(=O)NCCCN2CCC(C)CC2)c2c3ccccc3n(C)c2c1=O	0.0	-5	-16	-2.4	-3.9	-7	-1	-94
Cc1cc(C)nc(Nc2n[nH]c(C)n2)n1	0.2	-9	2	1.4	0.6	-10	5	0.3
CC(=O)N1N=C(c2ccc(NS(=O)(=O)c3ccccc3)cc2)CC1c1ccco1 (stereo not given)	1.4	12	.	5.4	.	.	-5	-18
CC(=O)c1cccc(NC(=O)c2ccc(CN3CCc4ccccc4C3)cc2)c1	?	0	18	-4.1	-3.7	8	7	2.2
Cc1cc(O)c(C(=O)Cc2csc(C)n2)c(O)c1	1.0	-6	13	6.7	-2.4	-4	-3	4.2
N#CCCN(Cc1ccccc1)C(=S)Nc1ccccc1	0.5	-2	?	-2.0	1.4	-9	3	2.0
COc1ccc(N(CC(=O)NCCc2ccc(Cl)cc2)S(=O)(=O)c2c(C)[nH]c(=O)[nH]c2=O)cc1	-1.0	-2	-2	-1.0	-1.7	8	-6	7.4
N#CCN1C(=O)C(=O)N(Cc2cccc(Cl)c2)C1=O	0.8	-3	-14	-1.0	4.6	-8	-3	-2.0
COC(=O)c1ccc(C(=O)NC(=S)Nc2ccc3nc(SC)sc3c2)cc1	-0.2	-6	6	-0.8	3.3	-8	17	1.6
Cc1ccc(Cc2c(C)nc3nc(SCC(=O)NCCCN4CCCCC4)nn3c2C)cc1	-0.2	-5	-4	-3.3	6.7	0	9	1.7
CCCc1nnc(SCC(=O)NC2CCCC2)n1CCOC	-0.3	-3	2	-5.3	-1.4	-6	-2	1.9
COc1ccc(CCC(=O)NNC(=O)c2ccc(F)cc2)cc1	-0.6	-3	6	14	1.4	-8	2	-1.6
COc1ccc(N2C(=O)CSC(c3ccccc3)C2=O)cc1 (stereo not given)	0.4	-1	17	-1.6	1.8	-6	18	0.1
Cc1cc2cc3c(cc2nc1SCC(=O)N1CCCC1)OCCO3	.	.	-6	.	-1.5	18	0	2.1
C=CC[C@@H](CC(=O)OC(C)(C)C)C(=O)OC[C@@H]1CCCN1C(=O)[C@@H](CC=C)CC(=O)N(CCO)Cc1ccccc1	-1.4	6	.	-5.8	.	.	1	1.3
COc1ccc(-c2cnnn2-c2ccc(N)cc2)cc1OC	0.6	-3	-11	1.1	-2.5	-3	-2	1.5
CC(C(=O)Nc1cccnc1)N1C(=O)c2ccccc2C1=O (stereo not given)	0.2	.	-12	-0.5	3.8	-10	-9	4.2
CC(=O)Nc1ccc2c(c1)OCCOCCOc1cc(NC(C)=O)ccc1OCCO2	0.8	-11	1	2.2	-4.1	-1	-4	5.7
COc1ccc(CCN(C)CC(O)COC(c2ccc(F)cc2)c2ccc(F)cc2)cc1OC (stereo not given)	-0.7	5	-17	-3.0	3.6	39	5	3.9
COc1ccc(S(=O)(=O)NCC(c2cccnc2)N2CCN(C)CC2)cc1C (stereo not given)	-0.5	-4	0	1.3	-4.3	35	-9	-2.9
O=C(NCCc1ccccc1)c1ccc2c(c1)N(Cc1ccccc1)CCS2	-1.3	5	-2	0.2	-0.5	20	1	-120
COc1ccc(NC(C)=O)c2nc(C)c(C)nc12	-0.3	-2	43	-0.3	-3.4	-11	4	7.5
O=C(NCc1ccco1)Nc1ccccc1Cl	-0.9	-1	-15	2.7	2.5	3	6	4.1
O=[N+]([O-])c1cccc(-c2cn3ccccc3n2)c1	-1.3	4	-5	3.2	2.1	-1	-7	3.9
CC1=C(C(=O)OC(C)C)C(c2ccccc2)NC(=O)N1C (stereo not given)	0.3	-7	-2	-1.0	4.0	-7	1	4.4
COc1cc(OC)cc(C(=O)NC2CCSc3ccccc32)c1 (stereo not given)	1.6	3	-4	3.9	2.2	15	0	2.0
O=C(Nc1cc(C(F)(F)F)ccc1N1CCOCC1)c1ccncc1	-0.3	-3	.	0.2	.	.	-5	5.5
O=C(CSC1=NS(=O)(=O)c2cc(F)ccc2N1)Nc1cccc(F)c1	0.0	5	18	5.0	-0.7	-7	7	5.9
O=C(Nc1ccc(C(=O)N2CCOCC2)cc1)c1cc(-c2cccnc2)nc2ccc(Cl)cc12	0.2	-9	36	-1.7	2.1	5	3	4.3
COc1ccccc1N1C(=O)C2C(c3ccccc3F)NN(C(=O)c3ccc(C)cc3)C2C1=O (stereo not given)	-0.7	0	0	-5.2	?	-8	-1	.
COc1ccccc1NS(=O)(=O)c1cccc(NC(=O)c2sc3ccccc3c2Cl)c1	1.8	2	-5	3.9	1.3	78*	7	2.2
CCCC(=O)NC(=S)Nc1cccc(NC(=O)c2ccccc2Cl)c1	-0.2	-7	13	-1.1	2.6	-22	-2	-3.0
COc1cc(OC)cc(C(=O)NCC(=O)OCC(=O)NC(C)(C)C)c1	0.3	-5	3	3.0	-0.9	-5	3	2.9
Cc1cc(C)cc(NC(=O)CCN2CCCC2)c1	3.1	-5	-10	4.6	-1.2	-5	6	4.6
CCCn1c(SCC(=O)N2c3ccccc3Sc3ccccc32)nc2ccccc21	0.6	7	?	0.8	-1.9	57*	4	3.7
Cc1nc(NCc2ccc(S(N)(=O)=O)cc2)c2c(C)c(C)sc2n1	-0.4	4	-6	0.7	-4.6	-31	1	2.8
Cc1ccc(S(=O)(=O)N/N=C\c2ccc([N+](=O)[O-])o2)cc1C	-0.2	1	7	-0.4	-2.1	7	-1	.
CC(=O)OC[C@H]1O[C@@H](n2ccc(=O)[nH]c2=S)C(OC(C)=O)C1OC(C)=O (stereo not given in full)	0.7	1	15	7.9	5.3	-9	-2	1.8
CCn1c(SCc2ccc(Cl)cc2)nc2nc3c(cc2c1=O)CCCC3	-0.2	11	2	.	2.7	14	-6	2.9
CCOc1ccccc1NC(=O)CN(c1cc(C)cc(C)c1)S(=O)(=O)c1c(C)noc1C	0.8	.	-5	-2.6	4.1	-3	2	4.9
COc1ccc(CC2(CO)CCN(S(=O)(=O)N(C)C)CC2)cc1	-0.4	-7	-5	4.1	-2.3	-7	1	1.1
OC(CNCc1ccccc1)c1ccccc1 (stereo not given)	-0.2	-3	17	2.5	7.9	14	-5	2.4
CC(=O)Oc1ccc2c(c1)cc(C)n2C	-0.6	4	1	3.5	-5.4	-10	8	-0.2
